Bioassay records as filed in PubChem.
Sa helicase inh: blocks Staphylococcus aureus DNA helicase. purified S. aureus helicase, fluorescence unwinding assay; about half of the hits fall short of the stated cut. inhibition, %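 (tested at about 80 µM)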. hit rate 0.05% among 120,000. AID 485395;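 active = both duplicates at 50% or more, or one of them with a favoured structure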;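 also: 0% = mean of negative control wells and 100% = mean of positive control wells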
MgrA-DNA mod: modulators of Staphylococcus aureus MgrA DNA binding. fluorescence polarization. inhibition, %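 (about 10 µg/mL by stock and volumes)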. hit rate 0.13% among 84,000. AID 602314;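 active = above 50% in either of two replicates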;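 also: 0% = protein plus DNA without compound and 100% = DNA alone without protein; higher means less MgrA bound to DNA so lower polarization; one replicate is shown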
* marks the source's active call; other numbers are inactive results; / = no result given; & = joins results of further samples. These rows are one share of the data, so the mix of outcomes need not match the whole.

Sa helicase inh,MgrA-DNA mod,Molecule
-17.0,1.9,O=C(Cc1ccccc1)NCC(=O)N1CCCCC1
3.0,/,CC(NC(N)=O)C1CC2CCC1C2 (stereo not given)
-18.0,/,COc1ccc(C(=O)NCC(=O)O)cc1OC
-5.0,/,CCOc1ccc(S(=O)(=O)N=C2C=CC(=O)C=C2)cc1
/,-0.3,Cc1nc(C)c(-c2ccn[nH]2)o1
12.0,/,COc1cc(-c2nnc(NC(=O)CS(=O)(=O)c3ccc(Cl)cc3)o2)cc(OC)c1OC
/,-0.7,CC(C)c1nc(N(C)S(C)(=O)=O)nc(-c2ccc(F)cc2)c1/C=C/[C@@H](O)C[C@@H](O)CC(=O)O
-6.0,/,Cc1ccc(Oc2ncccc2NS(=O)(=O)c2cn(C)c(C)n2)c2c1CCC2
3.0,-3.8,Cc1noc(NS(=O)(=O)c2ccc(NC(=O)c3ccncc3)cc2)c1C
-9.0,/,CCCN1C(=O)/C(=N\OCC(=O)N2CCC(C)CC2)c2ccccc21
10.0,-1.4,CC1(C)Cc2ccccc2C(c2sc3nc4c(cc3c2N)CCCCC4)=N1
29.0,/,CCOC(=O)c1ccc(-n2c(N)c(C(=O)N3CCCC3)sc2=S)cc1
/,-2.2,CCOC(=O)C(C)Oc1ccc(OCc2ccccc2)cc1 (stereo not given)
-6.0,/,ON=C1C2CC3CC(C2)CC1C3
17.0,/,OC1(c2ccccc2)CC2CCC(C1)N2c1ncccn1 (stereo not given)

Random excerpt: four entries already listed
Sa helicase inh,MgrA-DNA mod,Molecule
-6.0,/,ON=C1C2CC3CC(C2)CC1C3
-17.0,1.9,O=C(Cc1ccccc1)NCC(=O)N1CCCCC1
/,-0.7,CC(C)c1nc(N(C)S(C)(=O)=O)nc(-c2ccc(F)cc2)c1/C=C/[C@@H](O)C[C@@H](O)CC(=O)O
-5.0,/,CCOc1ccc(S(=O)(=O)N=C2C=CC(=O)C=C2)cc1

Quoted from the listing:
Sa helicase inh, ON=C1C2CC3CC(C2)CC1C3 = -6.0
Sa helicase inh, CCOc1ccc(S(=O)(=O)N=C2C=CC(=O)C=C2)cc1 = -5.0

Going on with the list.
Sa helicase inh,MgrA-DNA mod,Molecule
-9.0,/,CCCc1cc(=O)[nH]c(SCC(=O)N2CC(=O)Nc3ccccc32)n1
-7.0,-0.7,O=C(CSc1nncn1-c1ccccc1)Nc1c(F)c(F)c(F)c(F)c1F
/,0.8,C[C@@]1(C2CCCC2)Cc2cc(OCC(=O)O)c(Cl)c(Cl)c2C1=O
21.0,/,Cn1sc(=Nc2ccccc2)nc1-c1ccccc1
11.0,1.9,CN(C)c1nc2ccc(OCCN3CCCCC3)cc2s1
-101.0,/,COc1ccc(O)c(C(=O)c2cnc3nc4ccccc4n3c2)c1
1.0,/,COC(=O)c1ccc(OC(=O)c2sccc2C)cc1
-6.0,/,CC(C1CC1)N1C(=O)C2C(C1=O)C1C=CC2C12CC2 (stereo not given)
20.0,/,N#Cc1ccc(COC(=O)Cn2ccc(=O)[nH]c2=O)cc1
14.0,/,CCCn1nnc2c(=O)oc3ccccc3c21
10.0,/,Cc1ccc(SCCC#N)cc1
6.0,/,COC(=O)c1ccc(Nc2nc(N3CCN(C)CC3)c3ccccc3n2)cc1
10.0,1.5,CN1CCN(c2nc(-c3cccs3)cc(C(F)(F)F)n2)CC1
-6.0,/,Cc1noc(C)c1CSc1ncccc1C(=O)Nc1sc2c(c1C#N)CCC(C)C2 (stereo not given)
15.0,2.4&2.4,O=c1[nH]nc(-c2ncc[nH]2)c2ccccc12
20.0,/,CCC1CCCN1Cn1cnc2c([nH]c3ccccc32)c1=O (stereo not given)
-7.0,1.9,N/C(=N\O)C(=O)Nc1ccccc1
-6.0,-2.8,CC(C)OCC(O)CSc1nc2ccccc2s1 (stereo not given)
5.0,/,O=C(Cn1c(C(=O)O)cc2ccccc21)c1ccccc1
/,2.2,COc1cc(C2CC(C(F)(F)F)n3ncc(C(=O)N4CCN(C(c5ccccc5)c5ccccc5)CC4)c3N2)cc(OC)c1OC (stereo not given)
-2.0,-2.1,CCC(OC(=O)CN1C(=O)c2ccccc2C1=O)C(=O)NC1CCCC1 (stereo not given)
/,-1.1,Cc1csc2c(=O)n(CCO)c(=O)[nH]c12
-6.0,-0.2,Nc1nonc1-c1nc2ccccc2n1CC(=O)N1CCN(c2ccc(F)cc2)CC1
-16.0,/,COC(=O)C1=C(NNc2ncc(Cl)cc2C(F)(F)F)CSC1
/,0.0,COc1ccc(CCN2C(=O)CC(C(=O)Nc3ccc(C(=O)O)cc3)SC2=Nc2ccccc2)cc1 (stereo not given)
/,-2.9&2.2,O=C(C1COc2ccccc2O1)N1CCNCC1 (stereo not given)
27.0,/,CCOc1ccc(OCCC(=O)Nc2ccc(S(=O)(=O)N(C)C)cc2)cc1
5.0,/,CCn1cc(CCC(=O)NC(C)C)c2ccccc21
3.0,-0.1,CC1CCCCN1c1ccc(C(F)(F)F)cn1 (stereo not given)
/,-1.7,COc1ccc(CCNC(=S)NC2CC3C=CC2C3)cc1OC (stereo not given)
9.0,-1.4,COc1ccc(CN(C)C(=O)CSc2ccccc2)cc1
/,-2.9,Cc1ccc(=O)n(Cc2ccc(Cl)cc2)n1
-4.0,/,CCCCN(C)S(=O)(=O)c1ccc2c(c1)CCCC(=O)N2
/,-1.6,CSc1ccccc1C(=O)Nc1cc(C)cc(C)c1
-10.0,-0.8,O=C(NCc1ccc(Cl)cc1)c1cc2c(Cl)nc3ccccc3c2s1
-10.0,-0.8,CCN1CCN(C(C)C(=O)Nc2ccc3c(c2)OCO3)CC1 (stereo not given)
7.0,-1.2,COc1ccccc1CN1CCCC(C(=O)N(C)Cc2ccccc2)C1 (stereo not given)
-9.0,0.8,Cc1ccc(S(=O)(=O)/N=C(\Nc2cc(C)on2)c2ccccc2)cc1
2.0,-3.1,COc1ccc2sc(N(CCN(C)C)C(C)=O)nc2c1
29.0,/,Cc1nnsc1-c1n[nH]c(C)c1C(=O)NN
17.0,/,CCc1nnc2c(Nc3ccc4c(c3)OCCO4)nc3ccccc3n12
3.0,-2.9,COc1ccccc1CC(=O)N1CCCC(C)C1 (stereo not given)
4.0,-6.7,CN1C(=O)c2ccc(NC(=O)c3c(F)c(F)c(F)c(F)c3F)cc2C1=O
/,-2.5,Cc1ccc(S(C)(=O)=NS(=O)(=O)c2sc3ccc(Cl)cc3c2C)cc1 (stereo not given)
/,1.4,CCOC(=O)c1nnn2c1nc(Sc1nnc(-c3ccncc3)n1C)c1ccccc12
29.0,/,C=CCN1C(=O)C(C(=O)Nc2ccccc2)C2CC1(C)Oc1ccccc12 (stereo not given)
19.0,/,N=C(N)SC12CC3CC(CC(C3)C1)C2
/,12.7,CCOC(=O)C1=C(N)Oc2c(C)cc(Cl)cc2C1C(C#N)C(=O)OCC (stereo not given)
3.0,1.2,C=CC[N+](C)(C)CC#Cc1ccccc1
0.0,/,O=C(OCc1nnc(-c2ccc(Cl)cc2)o1)c1ccc2c(c1)C(=O)N(Cc1ccco1)C2=O
-22.0,/,N#Cc1ccsc1NC(=O)COC(=O)CSc1nnc(-c2ccc(F)cc2)n1-c1ccccc1
3.0,3.4,CC1(C)CC(=O)c2c([nH]c(-c3ccccc3)c2-c2ccccc2)C1
1.0,-1.8,Cc1ccc(NC(=O)c2ccco2)cc1F
-1.0,0.0,O=S(=O)(c1ccc(C2CCCCC2)cc1)N(CCCN1CCOCC1)Cc1cccs1
/,-0.9,Cn1c(=O)[nH]c(=O)c2c1nc(SCC(=O)c1ccc(Cl)cc1)n2CC(O)COc1ccc(Cl)cc1 (stereo not given)
/,0.6,Cc1ccc(C(=O)/C=C/C(=O)c2ccc(C)cc2)cc1
/,4.7,CSc1ncccc1C(=O)NC(CC(C)C)C(=O)O (stereo not given)
-17.0,/,CCn1c(CCC(=O)Nc2ccc(N3CCOCC3)cc2)nc2cc(S(=O)(=O)N(C)C)ccc21
11.0,-1.1,Cc1cc(=O)n2[nH]c(NCc3ccccc3)nc2n1
-3.0,4.2,O=C1NN(c2ccccc2)C(=O)/C1=C\c1ccccc1

Going on with the list:
Sa helicase inh,MgrA-DNA mod,Molecule
12.0,1.2,CCN(CC)c1ccc(NC(=O)C2c3ccccc3Oc3ccccc32)cc1
/,-1.7,COc1c(C)c(C)cc(C)c1C
/,-0.2,CCCn1c(-c2ccc(F)cc2)n[nH]c1=O
/,17.1,CCO/C=C1\SC(=S)N(/N=C/c2cccc(Cl)c2)C1=O
8.0,0.9,O=C1CCC(c2ccccc2)c2cc(Oc3c(F)c(N4CCOCC4)nc(F)c3Cl)ccc21 (stereo not given)
3.0,-3.4,CC(=O)Nc1nnc(SC(C)C(=O)Nc2ccc(S(N)(=O)=O)cc2)s1 (stereo not given)
16.0,0.1,CC1(C)Cc2nc3sc4c(=O)n(CC(=O)c5ccc(Cl)cc5)cnc4c3cc2CO1
5.0,/,Cc1occc(=O)c1OC(=O)c1cccs1
/,-3.8,NC(=O)c1csc(-c2ccncc2)n1
-1.0,2.3,COc1ccc2oc(=O)c(-c3nc(-c4ccc(Cl)cc4)cs3)cc2c1
4.0,-1.6,COC(=O)c1cc2c(ccn2-c2ccc(F)cc2)n1CC1CCCCC1
-1.0,/,Nc1c(Cl)nc(-c2ccccc2)nc1Cl
8.0,-6.9,Cc1ccc(O)c(NC(=O)c2cccs2)c1
-2.0,1.9,CCOC(=O)c1ccc(NC(=O)C2CC(=O)NC(Nc3nc4ccccc4s3)=N2)cc1 (stereo not given)
19.0,/,CC1CCCCN1C(=O)COc1ccc2oc3ccccc3c2c1 (stereo not given)
0.0,-0.3,CCc1ccc(N2CN(Cc3ccccc3)CNC2=S)cc1
5.0,2.8,CCCn1nc(NC(=O)CCC(=O)O)c2cc3cccc(C)c3nc21
-8.0,/,COc1ccccc1/C=N/OCC(=O)NCc1ccc2c(c1)OCO2
-9.0,-1.4,CCOC(=O)C1CCCN(C(=O)C(C)(C)Oc2ccc(Cl)cc2)C1 (stereo not given)
3.0,2.6,O=C(CCNS(=O)(=O)c1ccc2nc(-c3ccccc3)[nH]c2c1)N1CCOCC1
5.0,-0.6,CCc1noc(C)c1C(=O)N1CCCCCCC1
-4.0,/,O=C(CCNC(=O)Nc1ccccc1)Nc1ccc(N2CCOCC2)cc1N1CCOCC1
/,-1.5,C/C(=N\NC1=NCCN1Cc1ccccc1)c1ccc(F)cc1
/,0.0,Cc1ccc(OCC2SCCN2C(=O)c2ccc(F)cc2)c([N+](=O)[O-])c1 (stereo not given)
13.0,-1.9,CCc1cc(=O)n2[nH]c(C)c(-c3ccccc3OC)c2n1
5.0,-2.8,CC1Nc2ccccc2C(=O)N1NC(=O)c1ccc(Br)cc1 (stereo not given)
3.0,-1.4,O=C1NC(=O)C2C1C(c1ccccc1)N1C3C(=O)NC(=O)C3C(c3ccccc3)N21 (stereo not given)
-62.0,36.4,Cc1ccc(N2C(=O)c3cccc4c(N5CCN(C)CC5)ccc(c34)C2=O)c2cccnc12
6.0,/,CC1CCCC(NC(=O)Cn2ncc(Cl)c(Cl)c2=O)C1C (stereo not given)
7.0,1.8,Cc1ccccc1NC(=O)CN1C(=O)c2ccccc2C1=O

A second format for part of the listing above:
smiles	Sa helicase inh	MgrA-DNA mod
Cc1ccc(OCC2SCCN2C(=O)c2ccc(F)cc2)c([N+](=O)[O-])c1 (stereo not given)	/	0.0
CCc1cc(=O)n2[nH]c(C)c(-c3ccccc3OC)c2n1	13.0	-1.9
CC1Nc2ccccc2C(=O)N1NC(=O)c1ccc(Br)cc1 (stereo not given)	5.0	-2.8
O=C1NC(=O)C2C1C(c1ccccc1)N1C3C(=O)NC(=O)C3C(c3ccccc3)N21 (stereo not given)	3.0	-1.4
Cc1ccc(N2C(=O)c3cccc4c(N5CCN(C)CC5)ccc(c34)C2=O)c2cccnc12	-62.0	36.4
CC1CCCC(NC(=O)Cn2ncc(Cl)c(Cl)c2=O)C1C (stereo not given)	6.0	/

The list goes on:
Sa helicase inh,MgrA-DNA mod,Molecule
6.0,/,CC1(CSc2ccccc2C(=O)O)NC(=O)NC1=O (stereo not given)
15.0,/,Cc1ccc(/C(O)=C/c2nc3ccccc3[nH]2)cc1
/,3.8,O=C(NCC1CCNCC1)c1ccno1
1.0,/,Cc1ccccc1-n1c(Cn2c(=O)sc3ccccc32)n[nH]c1=S
/,-1.5,COc1ccc(C2SCCN2C(=O)c2cc3cc(Br)ccc3oc2=O)cc1 (stereo not given)
/,6.2,O=C(N/C=C/c1ccsc1)Sc1cc(C(F)(F)F)cc(C(F)(F)F)c1
4.0,-4.1,COc1ccc(C(=O)NCC23C=CC(O2)C2C(=O)N(c4ccccc4C)C(=O)C23)cc1 (stereo not given)
/,0.9,CCN(CCC#N)c1ccccc1
-2.0,/,C/C(N)=C(/C#N)C(=O)CSc1nc2ccc(Br)cc2c(=O)n1Cc1ccco1
/,-0.7,COC(=O)c1sccc1NC(=O)CSc1ccccn1
3.0,/,O=C(Nc1nnc(-c2ccc(Cl)cc2)s1)C1CCCCC1
24.0,-0.5,CC(Sc1ncn(-c2ccccc2)n1)C(=O)Nc1ccc(Cl)cc1 (stereo not given)
10.0,1.4,C/C(=N/NC(=O)CC1=NNC(=O)C1)c1ccc(Br)cc1
7.0,/,CCCCn1cnc2c1c(=O)n(CC(=O)Nc1ccc(CC)cc1)c(=O)n2CCC
31.0,/,Cc1csc2c(N3CCN(C(=S)NCC4CC4)CC3)ncnc12
3.0,-2.2,CCC(C)NC(=O)c1cc(-c2ccccc2O)no1 (stereo not given)
0.0,/,CCOC(=O)c1c(C)[nH]c(C)c1C(=O)COc1cc(C)nc(C(C)C)n1
-8.0,/,O=C(COC(=O)c1n[nH]c(=O)c2ccccc12)NC1CCCCCC1
3.0,/,COC(=O)c1ccc(COC(=O)c2cccc(C#N)c2)o1
-9.0,1.9,C/C(=C\C(=O)c1ccc(C)o1)Nc1ccc(Nc2ccccc2)cc1
9.0,1.9,CCC(CC)C(=O)N1c2ccccc2Sc2ccccc21
-3.0,/,O=C1CCCN2N=C(SCC(=O)N3CCCc4ccccc43)SC2=N1
15.0,-2.9,CC(Sc1nc2ccc(C(=O)c3ccccc3)cc2[nH]1)C(=O)O (stereo not given)
